# NOMO-1 viab: NOMO-1 AML cell viability reduction, primary screen, STK33 inhibitor project, CellTiter-Glo luminescence. NOMO-1 AML viability, 72 h. inhibition, % (no concentration beside the values). actives 7.5% (n = 37,000);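 active = most replicates above 80%; inconclusive = exactly half above 80%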;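 also: wells of about 30 µL received 25 nL stock; 0% = median of vehicle wells and 100% = reference inhibitor level; the first replicate is given; inactives centre near 10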
# Numbers without * were called inactive; ? = inconclusive.
SMILES,NOMO-1 viab
COc1ccc(NC(=O)N(C)C[C@H]2Oc3ccc(NS(=O)(=O)c4ccc(Cl)cc4)cc3C(=O)N([C@@H](C)CO)C[C@@H]2C)cc1,14
C=CC1(C)C=C2CCC3C(C)(C)C(O[C@@H]4O[C@@H](CO)[C@H](O)[C@H]4O)CCC3(C)C2CC1O[C@@H]1O[C@H](C)[C@H](O)[C@H](O)[C@H]1O (stereo partly specified),-7
C[C@@H]1CN([C@@H](C)CO)C(=O)c2cccc(NC(=O)C3CCOCC3)c2O[C@@H]1CN(C)S(=O)(=O)c1ccccc1,26
CC1(C)CC[C@]2(C(=O)O)CC[C@]3(C)C(=CCC4[C@@]5(C)CC[C@H](O[C@@H]6O[C@H](C(=O)O)[C@@H](O[C@@H]7O[C@H](CO)[C@@H](O)[C@H](O)[C@H]7O)[C@H](O)[C@H]6O[C@@H]6O[C@H](CO)[C@@H](O)[C@H](O)[C@H]6O)C(C)(C)C5CC[C@]43C)C2C1 (stereo partly specified),54
Cc1ccc(C(=O)c2coc3ccc(O)cc23)o1,41
CC(C)NC(=O)Nc1cccc2c1O[C@@H](CN(C)Cc1ccc3c(c1)OCO3)[C@H](C)CN([C@H](C)CO)C2=O,8
COc1ccc(Br)cc1COC(=O)C1c2ccccc2Oc2ccccc21,13
Cc1noc(C)c1S(=O)(=O)Nc1ccc2c(c1)C(=O)N([C@H](C)CO)C[C@H](C)[C@H](CN(C)Cc1ccc(Cl)c(Cl)c1)O2,20
C[C@@H]1CCCCO[C@H](CN(C)S(=O)(=O)c2ccccc2)[C@@H](C)CN([C@H](C)CO)C(=O)c2cc(NC(=O)Nc3ccc(C(F)(F)F)cc3)ccc2O1,?
CC1(C)c2ccccc2N2CC(=O)NC21/C=C/c1ccc(F)cc1 (stereo unspecified),40
C[C@@H]1CCCCO[C@H](CN(C)C(=O)Nc2ccc3c(c2)OCO3)[C@@H](C)CN([C@H](C)CO)C(=O)c2cc(NS(=O)(=O)c3cccs3)ccc2O1,18
C[C@H](CO)N1C[C@H](C)[C@H](CN(C)S(=O)(=O)c2ccc(F)cc2)Oc2c(NS(=O)(=O)c3ccccc3)cccc2C1=O,23
COc1ccc(NC(=O)N(C)C[C@@H]2Oc3ccc(NC(=O)Nc4c(C)noc4C)cc3CC(=O)N([C@H](C)CO)C[C@@H]2C)cc1,27
C=C(C)[C@@H]1CC[C@]2(C(=O)O)CC[C@]3(C)[C@H](CCC4[C@]5(C)C(CC[C@]43C)[C@@](C)(CO)[C@@H](O)[C@@H]5C(=O)O)C12 (stereo partly specified),9
CCCN(C)C[C@@H]1OCCCC[C@@H](C)Oc2ccc(NC(=O)C3CCCCC3)cc2C(=O)N([C@H](C)CO)C[C@@H]1C,15
COc1ccc(NC(=O)Nc2cccc3c2O[C@H](CN(C)CC2CCCCC2)[C@@H](C)CN([C@H](C)CO)C3=O)cc1,45
COc1ccc(Cl)cc1NC(=S)NCc1cccnc1,25
CC1C[C@@]23CC4C(C)(C)[C@@]5(C[C@]4(CN2C1=O)N(C)C3=O)C(=O)Nc1c5ccc2c1C(=O)CC(C)(C)O2 (stereo partly specified),118*
CSc1ncc(Cl)c(C(=O)Nc2nnc(SC/C=C/c3ccccc3)s2)n1,20
CCN(CC(=O)O)S(=O)(=O)c1ccc(F)cc1,5
Cc1ccccc1OCC(=O)Nc1cc(-c2nc3ccccc3s2)c(Cl)cc1Cl,7
C[C@@H]1CN([C@@H](C)CO)C(=O)c2cc(NC(=O)C3CCCCC3)ccc2O[C@H]1CN(C)Cc1ccncc1,-7
C[C@H](CO)N1C[C@H](C)[C@H](CN(C)Cc2ccc(C(F)(F)F)cc2)Oc2ccc(NC(=O)c3ccncc3)cc2CC1=O,32
COC(=O)C1=CN(C2CC2)C=C(C(=O)OC)C1c1ccccc1,48
COc1ccccc1C(=O)n1nc(-c2ccccc2)nc1NCc1ccco1,4
CCn1c(SCC(=O)NC(C)(C)C)nnc1-c1cccc([N+](=O)[O-])c1,1
C[C@@H]1CN([C@@H](C)CO)C(=O)c2cccc(NC(=O)c3ccc(-c4nccs4)cc3)c2O[C@@H]1CN(C)Cc1ccccc1,14
Cn1ncc(Br)c1-c1nc2ccccc2[nH]1,4
O=C(Nc1sc2c(c1C(=O)O)CCCC2)c1ccc(Br)cc1,66
C[C@@H]1CN([C@H](C)CO)C(=O)Cc2cc(NC(=O)NC3CCCCC3)ccc2O[C@H]1CN(C)Cc1ccncc1,6
COc1ccc(S(=O)(=O)N(C)C[C@H]2Oc3ccc(NC(=O)CCCN(C)C)cc3C(=O)N([C@H](C)CO)C[C@@H]2C)cc1,22
CN(C(=O)CN1C(=O)c2ccccc2S1(=O)=O)c1ccccc1C(=O)O,10
C[C@H]1CN([C@@H](C)CO)C(=O)c2cc(NC(=O)CCN3CCOCC3)ccc2O[C@@H]1CN(C)S(=O)(=O)c1ccc(Cl)cc1,16
Cc1noc(C)c1NC(=O)N(C)C[C@H]1Oc2c(NC(=O)C3CCOCC3)cccc2C(=O)N([C@H](C)CO)C[C@H]1C,11
C[C@@H]1CN([C@@H](C)CO)C(=O)c2cccc(NC(=O)c3nc4ccccc4s3)c2O[C@@H]1CN(C)Cc1ccc2c(c1)OCO2,90*
C[C@H]1CN([C@@H](C)CO)C(=O)c2cccc(NS(=O)(=O)c3cccs3)c2O[C@@H]1CN(C)CC1CC1,8
COc1ccc(NC(=O)CCC2COc3ccccc3O2)c(OC)c1 (stereo unspecified),-2
COc1cccc(NC(=S)NC(Cc2ccccc2)c2ccccc2)c1 (stereo unspecified),-22
C[C@H](CO)N1C[C@H](C)[C@H](CN(C)CC2CC2)Oc2c(NS(=O)(=O)c3cccs3)cccc2C1=O,15
Fc1cccc(Cl)c1CSc1ccccc1C1=NCCCN1,15
CC(C)NC(=O)N(C)C[C@@H]1Oc2ccc(N(C)C)cc2CC(=O)N([C@H](C)CO)C[C@@H]1C,0
C[C@@H]1CN([C@H](C)CO)C(=O)Cc2cc(NS(C)(=O)=O)ccc2O[C@@H]1CN(C)C(=O)Nc1ccc2c(c1)OCO2,-4
Cc1ccc(-c2cc(C(F)(F)F)n3nc(C(=O)NCc4ccco4)cc3n2)cc1,11
C[C@@H]1CN([C@@H](C)CO)C(=O)Cc2cc(NC(=O)Nc3ccc(C(F)(F)F)cc3)ccc2O[C@@H]1CN(C)C(=O)Nc1ccc(C(F)(F)F)cc1,114*
CCC(Oc1cccc(NC(=O)c2ccccc2[N+](=O)[O-])c1)C(=O)c1ccccc1 (stereo unspecified),3
COc1ccc(S(=O)(=O)N(C)C[C@@H]2Oc3c(NC(=O)Nc4cccc5ccccc45)cccc3C(=O)N([C@H](C)CO)C[C@H]2C)cc1,22
CC(C)(C)NC(=O)NCc1ccncc1,-15
C[C@H](CO)N1C[C@H](C)[C@H](CN(C)C(=O)Nc2cccc3ccccc23)Oc2c(NC(=O)Nc3ccc(F)cc3)cccc2C1=O,15
Cc1[nH]c2ccccc2c1C(=O)CSc1nnc(N)s1,27
C[C@H]1CN([C@@H](C)CO)C(=O)c2cccc(NS(=O)(=O)c3ccccc3)c2O[C@H]1CN(C)C(=O)Nc1cccc2ccccc12,7

# Some of the entries so far, with each value named.
Cc1noc(C)c1S(=O)(=O)Nc1ccc2c(c1)C(=O)N([C@H](C)CO)C[C@H](C)[C@H](CN(C)Cc1ccc(Cl)c(Cl)c1)O2
  NOMO-1 viab: 20
C[C@@H]1CCCCO[C@H](CN(C)S(=O)(=O)c2ccccc2)[C@@H](C)CN([C@H](C)CO)C(=O)c2cc(NC(=O)Nc3ccc(C(F)(F)F)cc3)ccc2O1
  NOMO-1 viab: ?
CC1(C)c2ccccc2N2CC(=O)NC21/C=C/c1ccc(F)cc1 (stereo unspecified)
  NOMO-1 viab: 40
C[C@@H]1CCCCO[C@H](CN(C)C(=O)Nc2ccc3c(c2)OCO3)[C@@H](C)CN([C@H](C)CO)C(=O)c2cc(NS(=O)(=O)c3cccs3)ccc2O1
  NOMO-1 viab: 18

# (listing goes on)
SMILES,NOMO-1 viab
Cc1ccc(OCC(=O)Nc2ccccc2N2CCN(S(C)(=O)=O)CC2)cc1,4
CS(=O)(=O)N(CC(=O)Nc1c(F)cccc1F)c1cccc(Cl)c1Cl,5
C[C@@H]1CN([C@H](C)CO)C(=O)Cc2cc(NC(=O)CCCN(C)C)ccc2O[C@@H]1CN(C)S(=O)(=O)c1ccc(Cl)cc1,-21
C[C@@H]1CN([C@@H](C)CO)C(=O)c2cc(NC(=O)Nc3cccc4ccccc34)ccc2O[C@@H]1CN(C)Cc1ccc(C(=O)O)cc1,2
Cn1c(SCC(=O)c2ccc(Br)cc2)nnc1-c1cccc([N+](=O)[O-])c1,9
Cc1ccc(S(=O)(=O)N(C)CC(=O)Nc2ccccc2-c2ccccc2)cc1,4
C[C@@H]1CN([C@@H](C)CO)C(=O)c2cc(NC(=O)CCN3CCOCC3)ccc2O[C@@H]1CN(C)C(=O)Nc1ccc(C(F)(F)F)cc1,24
C[C@H]1CN([C@@H](C)CO)C(=O)c2cccc(NC(=O)c3ccncc3)c2O[C@H]1CN(C)C(=O)Nc1cccc2ccccc12,-21
CC(C)NC(=O)Nc1ccc2c(c1)C(=O)N([C@H](C)CO)C[C@@H](C)[C@@H](CN(C)C(=O)Nc1ccc(C(F)(F)F)cc1)O2,6
CC(C)NC(=O)Nc1ccc2c(c1)CC(=O)N([C@H](C)CO)C[C@@H](C)[C@H](CN(C)Cc1ccc3c(c1)OCO3)O2,10

# Two entries from above, with each value named.
C[C@@H]1CN([C@@H](C)CO)C(=O)Cc2cc(NC(=O)Nc3ccc(C(F)(F)F)cc3)ccc2O[C@@H]1CN(C)C(=O)Nc1ccc(C(F)(F)F)cc1
  NOMO-1 viab: 114*

CCC(Oc1cccc(NC(=O)c2ccccc2[N+](=O)[O-])c1)C(=O)c1ccccc1 (stereo unspecified)
  NOMO-1 viab: 3

# Remaining list, next part:
SMILES,NOMO-1 viab
CN(CC(=O)Nc1cccc(Cl)c1)S(=O)(=O)c1ccccc1,2
CC1=C(C(=O)OC(C)C)C(c2ccccc2[N+](=O)[O-])n2ncnc2N1 (stereo unspecified),4
Cc1c(Cl)cccc1NC(=O)c1ccc(OCC(=O)Nc2ccc(F)cc2)cc1,13
COC(=O)c1ccccc1NC(=O)CN(C1CCCCC1)S(C)(=O)=O,20
C[C@H]1CN([C@@H](C)CO)C(=O)c2cccc(NS(=O)(=O)c3ccccc3)c2O[C@@H]1CN(C)Cc1ccccc1,-5
C[C@@H]1CN([C@H](C)CO)C(=O)c2cc(NS(=O)(=O)c3ccccc3)ccc2O[C@@H]1CN(C)Cc1ccc(C(=O)Nc2ccccc2N)cc1,109*
C[C@H]1CN([C@@H](C)CO)C(=O)c2cccc(NC(=O)C3CCOCC3)c2O[C@H]1CN(C)C(=O)NC1CCCCC1,-6
C[C@H](CO)N1C[C@H](C)[C@H](CN(C)Cc2ccc(-c3ccccc3)cc2)Oc2c(NC(=O)c3ccc(-c4nccs4)cc3)cccc2C1=O,88*
COc1ccc(CN(C)C[C@H]2Oc3ccc(NC(=O)Nc4ccc5c(c4)OCO5)cc3C(=O)N([C@@H](C)CO)C[C@H]2C)cc1,12
COc1cc(O)c2c(=O)oc3c(O)c(OC)cc(C)c3c2c1,25
CCOc1ccc(N2C(=O)CCC2=O)cc1,-4
Cc1noc(C)c1NC(=O)Nc1ccc2c(c1)CC(=O)N([C@H](C)CO)C[C@@H](C)[C@@H](CN(C)S(=O)(=O)c1cccs1)O2,17
CC(C)NC(=O)N(C)C[C@@H]1Oc2ccc(NC(=O)Nc3ccc(F)cc3)cc2CC(=O)N([C@@H](C)CO)C[C@@H]1C,3
O=C(O)CC(Cc1ccc(Cl)cc1)C(=O)Nc1ccccc1I (stereo unspecified),13
O=C(COc1ccccc1[N+](=O)[O-])Nc1ccc(N2CCN(C(=O)c3ccco3)CC2)cc1,59
C[C@@H]1CN([C@H](C)CO)C(=O)c2cccc(NC(=O)Nc3ccc(F)cc3)c2O[C@H]1CN(C)C(=O)Nc1ccc(F)cc1,8
C[C@@H]1CN([C@H](C)CO)C(=O)c2cc(NS(C)(=O)=O)ccc2O[C@H]1CN(C)Cc1ccccc1,21
O=C(CS(=O)c1ccccc1[N+](=O)[O-])Nc1cccc(C(F)(F)F)c1 (stereo unspecified),43
COc1ccc(NC(=O)N(C)C[C@@H]2Oc3ccc(NC(=O)Nc4c(C)noc4C)cc3C(=O)N([C@@H](C)CO)C[C@@H]2C)cc1,25
Cc1ccc(N(C(C)C(=O)Nc2cccc(C(F)(F)F)c2)S(C)(=O)=O)cc1C (stereo unspecified),34
O=C(CSc1n[nH]c(-c2ccc(Cl)cc2Cl)n1)Nc1ccccc1F,-6
C[C@H](CO)N1C[C@H](C)[C@@H](CN(C)Cc2ccc3c(c2)OCO3)Oc2ccc(NS(=O)(=O)c3ccc(Cl)cc3)cc2C1=O,36
C[C@@H]1CN([C@@H](C)CO)C(=O)c2cc(NC(=O)Nc3ccccc3)ccc2O[C@@H]1CN(C)C(=O)NC1CCCCC1,40
Cc1noc(C)c1S(=O)(=O)NCC1COc2ccccc2O1 (stereo unspecified),-12
Cc1cc(C)c(C#N)c(SCC(=O)c2cc3ccccc3oc2=O)n1,8
COc1ccc(S(=O)(=O)Nc2ccc3c(c2)C(=O)N([C@H](C)CO)C[C@@H](C)[C@@H](CN(C)Cc2ccncc2)O3)cc1,1
N#Cc1ccc(N2CCCN(C(=S)NC3CCCC3)CC2)nc1,23

# Quoted at random: 5 records from the list
SMILES,NOMO-1 viab
C[C@H](CO)N1C[C@H](C)[C@@H](CN(C)Cc2ccc3c(c2)OCO3)Oc2ccc(NS(=O)(=O)c3ccc(Cl)cc3)cc2C1=O,36
C[C@@H]1CN([C@@H](C)CO)C(=O)c2cc(NC(=O)Nc3ccccc3)ccc2O[C@@H]1CN(C)C(=O)NC1CCCCC1,40
Cc1noc(C)c1S(=O)(=O)NCC1COc2ccccc2O1 (stereo unspecified),-12
N#Cc1ccc(N2CCCN(C(=S)NC3CCCC3)CC2)nc1,23
Cc1cc(C)c(C#N)c(SCC(=O)c2cc3ccccc3oc2=O)n1,8

# Bioassay records as filed in PubChem BioAssay.

# A portion of the library, so the mix of outcomes need not match the whole.
